B2AR ag: human beta-2 adrenergic receptor agonism by FAP | P07550 | Am2.2-beta2AR cells, FAP receptor internalization, flow cytometry; reference of the scale not given here | response, % (no concentration beside the values) | hit rate 0.43% among 340,000 | AID 504454;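 active = response above a set limit, near 3 SD of response in nonfluorescent compounds, cut at about 42% in these data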;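 note: stock transfer was 100 nL into about 11 µL; a reference agonist was the positive control; negative values mostly stem from fluorescent compounds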
rRNA inh HTS: inhibitors of bacterial rRNA selective over humanized ribosomes. GFP signal change (wild-type ribosome), % (test concentration not listed). hit rate 1.6% among 350,000. E. coli WT GFP vs humanized-ribosome RFP mutants, fluorescence, 24 h; stronger effect = lower value; DMSO median 0, no signal -100;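 active = significant combined selectivity score with lowered wild-type GFP, culture density cut under 30%, mutant RFP and density less affected; inactive = any of these conditions unmet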; note: one replicate is shown; some compounds called inactive have numbers as strong as hits
LANA-H2B inh: blocks KSHV LANA binding to histone H2A/H2B; Q9QR71; cell-free LANA-H2A/H2B peptide, fluorescence polarization; inhibition, % (test concentration not listed); hit rate 0.6% among 320,000; AID 2629; in the data active = inhibition mostly above about 10%, no sharp cut-off; inactive = mostly below about 6.7%;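 note: stock transfer was 7.5 nL into about 10 µL; 0% = median of vehicle wells and 100% = median of positive control wells; one replicate is shown; the record names a cut of 25% in any replicate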
Target sequence (Q9QR71 whole entry, looked up): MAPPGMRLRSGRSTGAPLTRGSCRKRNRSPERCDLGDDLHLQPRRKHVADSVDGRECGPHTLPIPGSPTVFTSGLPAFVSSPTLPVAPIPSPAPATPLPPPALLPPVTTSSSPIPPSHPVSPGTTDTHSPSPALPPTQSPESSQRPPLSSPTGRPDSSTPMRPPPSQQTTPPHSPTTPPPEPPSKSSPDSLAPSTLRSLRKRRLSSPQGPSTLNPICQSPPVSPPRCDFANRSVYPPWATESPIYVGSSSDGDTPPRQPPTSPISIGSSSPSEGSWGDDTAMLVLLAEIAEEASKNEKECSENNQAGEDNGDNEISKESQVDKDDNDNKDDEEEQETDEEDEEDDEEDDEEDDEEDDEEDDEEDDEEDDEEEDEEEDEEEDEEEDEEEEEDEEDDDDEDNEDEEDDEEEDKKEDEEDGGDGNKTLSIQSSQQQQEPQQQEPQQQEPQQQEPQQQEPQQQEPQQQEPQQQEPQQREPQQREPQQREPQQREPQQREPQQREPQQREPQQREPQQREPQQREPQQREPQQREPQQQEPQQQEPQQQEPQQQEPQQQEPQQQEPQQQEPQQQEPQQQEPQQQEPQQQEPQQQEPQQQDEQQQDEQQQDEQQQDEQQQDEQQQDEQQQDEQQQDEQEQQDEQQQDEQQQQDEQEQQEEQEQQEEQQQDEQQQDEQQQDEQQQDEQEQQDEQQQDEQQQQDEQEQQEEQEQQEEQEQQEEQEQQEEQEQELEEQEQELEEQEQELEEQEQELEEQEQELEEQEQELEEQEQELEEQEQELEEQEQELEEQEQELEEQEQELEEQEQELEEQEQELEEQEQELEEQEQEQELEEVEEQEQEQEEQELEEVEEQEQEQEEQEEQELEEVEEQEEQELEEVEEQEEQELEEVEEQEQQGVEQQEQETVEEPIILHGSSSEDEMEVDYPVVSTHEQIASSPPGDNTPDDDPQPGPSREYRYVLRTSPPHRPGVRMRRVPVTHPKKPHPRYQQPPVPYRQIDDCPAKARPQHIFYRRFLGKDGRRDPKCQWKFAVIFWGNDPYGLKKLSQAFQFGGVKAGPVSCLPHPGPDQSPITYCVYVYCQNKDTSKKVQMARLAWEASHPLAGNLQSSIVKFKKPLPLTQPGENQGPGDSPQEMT
Bfl-1 A1 inh: inhibitors of the anti-apoptotic protein A1, read as caspase activation; MEF A1-2A-BIM cells, Caspase-Glo 3/7 luminescence, 3 h; percent of clofoctol response, vehicle zero; caspase activation, % (concentration not given with the values); hit rate 0.066% among 330,000;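 active = over half of replicate activation scores above 10%, or exactly half above 10 with the replicate mean above 10; inconclusive = replicate mean below 10 yet half the replicates above 10; inactive = over half of replicates below 10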;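 note: wells of about 30 µL received 50 nL stock; many hits fall short of the cut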
Beta cell apopt: blocks beta cell apoptosis; INS-1E cytokine-induced death, ATP luminescence, 48 h; percent of positive-control rescue, neutral wells zero; protection from apoptosis, % (no concentration beside the values); hit rate 0.8% among 300,000;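 active = all replicates at 75% or more, or half of them and the mean; inconclusive = half reach 75% but not the mean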;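 note: 0% = cytokine-treated negative control wells and 100% = positive control rescue; higher means more ATP so stronger rescue from cytokine killing; wells of about 40 µL received 100 nL stock; the first replicate is given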
Calb FLC: C. albicans growth modulation with fluconazole | C. albicans CaCi-2 (fluconazole-resistant clinical isolate) + fluconazole, Alamar Blue growth, 48 h | hit rate 0.57% among 300,000 | growth inhibition, % (concentration not given with the values) | AID 1979;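 active = most replicates above 75%; inconclusive = exactly half above 75%; inactive = most below 75%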;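 note: all wells also contain fluconazole at 8 µg/ml as a sub-toxic cotreatment; 0% = median of DMSO wells and 100% = median of geldanamycin control wells; wells of about 8 µL received 7.5 nL stock; the first replicate is given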
T cruzi inh: T. cruzi replication inhibition; inhibition, % (no concentration beside the values); T. cruzi beta-gal in NIH3T3, luminescence, 90 h; AID 1885; hit rate 1.4% among 300,000;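 active = mean inhibition across valid replicates above about 55%, limit read from the data; inconclusive = mean below that limit but half or more replicates reach it; inactive = mean below it, under half of replicates reach it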;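 note: signal also drops with host cell toxicity which is not excluded here; 0% = plate median of DMSO wells and 100% = zero luminescence signal; higher percent means less beta-gal luminescence so fewer parasites; stock transfer was 50 nL into about 50 µL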
ALR inh: blocks human ALR sulfhydryl oxidase activity; hit rate 3.8% among 290,000; purified ALR, DTT oxidation, H2O2 HRP-luminol luminescence; P55789; inhibition, % (no concentration beside the values);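 active = mean and each replicate at 75% or more; inconclusive = only one of the two met; inactive = neither met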;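 note: stock transfer was 7.5 nL into about 7.5 µL; 0% = neutral wells and 100% = wells with inactivated enzyme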
rRNA inh HTS OD600: further read-out of rRNA inh HTS, marked with its call; OD600 change, %; measured here: OD600 growth;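 optical density of the mix in the first replicate; 0 = DMSO median and -100 = no signal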
rRNA inh HTS RFP: second read-out of rRNA inh HTS, no call of its own (marks repeat the call); RFP signal change, %; measured here: RFP humanized mutant strains;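 first replicate; 0 = DMSO median and -100 = no signal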
Starred values were filed as active, the others as inactive. These rows are one share of the data; the hit share may differ from the screen's.

Screening COc1cc(C2C(C#N)=C(N)Oc3c2oc(CO)cc3=O)ccc1OC(C)C (configuration not stated) returned B2AR ag -4, LANA-H2B inh -2.2, Bfl-1 A1 inh -0.3, Beta cell apopt 6, Calb FLC 4, T cruzi inh -14 and ALR inh 85*.
Screening O=C(OCCN1C(=O)c2cccc3c(N4CCOCC4)ccc(c23)C1=O)c1ccccc1Cl returned B2AR ag -77, LANA-H2B inh 27*, Bfl-1 A1 inh -0.3, Beta cell apopt 19, Calb FLC 15 and T cruzi inh 13.
`O=C(N/C(=C\c1ccc([N+](=O)[O-])cc1)C(=O)N1CCOCC1)c1ccco1` gave B2AR ag -8, rRNA inh HTS -7, LANA-H2B inh -1.7, Bfl-1 A1 inh -0.8, Beta cell apopt -2, Calb FLC -3, T cruzi inh 4, ALR inh -3, rRNA inh HTS OD600 -3 and rRNA inh HTS RFP 0.6.
For COc1cc2[nH]c(C(=O)NN)c(N)c2cc1OC the results were LANA-H2B inh 6.6, Bfl-1 A1 inh -0.4, Beta cell apopt -2, Calb FLC -8, T cruzi inh -18 and ALR inh -10.
Screening CC(=O)NC(CC(=O)Nc1ccc(S(=O)(=O)N2CCOCC2)cc1)c1ccccc1 (configuration not stated) returned B2AR ag 1, rRNA inh HTS -3, LANA-H2B inh -7.0, Bfl-1 A1 inh 0.7, Beta cell apopt -4, ALR inh -5, rRNA inh HTS OD600 -3 and rRNA inh HTS RFP -0.3.
`O=C(Nc1nnc(-c2ccc(F)cc2)o1)C1CCCN1S(=O)(=O)c1cccs1` (configuration not stated) gave B2AR ag 4, rRNA inh HTS -14, LANA-H2B inh -7.1, Bfl-1 A1 inh 1.4, Beta cell apopt -6, Calb FLC 16, T cruzi inh -3, ALR inh -7, rRNA inh HTS OD600 -22 and rRNA inh HTS RFP -1.7.
Screening Cc1ccc(-c2noc(CNc3ccccc3)n2)cc1 returned B2AR ag -4, LANA-H2B inh -2.0, Bfl-1 A1 inh 0.0, Beta cell apopt -7, Calb FLC -28, T cruzi inh -5 and ALR inh 32.
O=C(COC(=O)/C=C/c1ccco1)NCc1ccc(Cl)cc1Cl was read as B2AR ag 0, rRNA inh HTS 1, LANA-H2B inh 3.6, Bfl-1 A1 inh 1.1, Beta cell apopt -2, ALR inh 3, rRNA inh HTS OD600 6 and rRNA inh HTS RFP -0.7.
`O=C(NCCc1ccccc1)C(c1ccc(F)cc1)N(C(=O)c1csnn1)C1CC1` (configuration not stated) gave B2AR ag -3, LANA-H2B inh 0.6, Bfl-1 A1 inh 0.2, Beta cell apopt -8, Calb FLC 0, T cruzi inh 5 and ALR inh -4.
For Cc1ccc(NC(=O)NCc2ccc3c(c2)OCO3)cc1 the results were B2AR ag 0, LANA-H2B inh -7.9, Bfl-1 A1 inh 0.6, Beta cell apopt -2, Calb FLC -35, T cruzi inh -4 and ALR inh -3.
`CC(C)(C)NC(=O)C(c1ccc(O)cc1)N(C(=O)CCC(=O)Nc1nccs1)c1cccc(F)c1` (configuration not stated) gave B2AR ag -3, rRNA inh HTS -5, LANA-H2B inh -0.6, Bfl-1 A1 inh 0.9, Calb FLC 6, T cruzi inh -12, ALR inh -11, rRNA inh HTS OD600 -15 and rRNA inh HTS RFP -2.5.
`CC(Oc1ccccc1)C(=O)OCC(=O)NC(=O)NC1CCCCC1` (configuration not stated) gave B2AR ag 4, rRNA inh HTS 3, LANA-H2B inh 2.0, Bfl-1 A1 inh 0.9, Beta cell apopt 0, ALR inh -1, rRNA inh HTS OD600 6 and rRNA inh HTS RFP 0.1.
Screening COCn1c(-c2ccc(OC)c(OC)c2)nc2ccccc21 returned B2AR ag -6, LANA-H2B inh 2.1, Bfl-1 A1 inh -3.7, Beta cell apopt 3, Calb FLC inconclusive, T cruzi inh -3 and ALR inh -13.
O=C1C(Cl)=C(N2CCCC2)C(=O)N1c1ccc(F)cc1 was read as B2AR ag -12, rRNA inh HTS 52, LANA-H2B inh 1.8, Bfl-1 A1 inh -0.6, Beta cell apopt 0, Calb FLC -8, T cruzi inh 21, ALR inh -2, rRNA inh HTS OD600 12 and rRNA inh HTS RFP 0.3.
Screening N/C(CN1CCCC1=O)=N\OC(=O)c1ccccc1Cl returned B2AR ag -1, LANA-H2B inh -0.6, Bfl-1 A1 inh 2.3, Beta cell apopt -5, Calb FLC 21, T cruzi inh 2 and ALR inh 2.

Next part, overlapping the part above by 2 compounds.
O=C1C(Cl)=C(N2CCCC2)C(=O)N1c1ccc(F)cc1 was read as B2AR ag -12, rRNA inh HTS 52, LANA-H2B inh 1.8, Bfl-1 A1 inh -0.6, Beta cell apopt 0, Calb FLC -8, T cruzi inh 21, ALR inh -2, rRNA inh HTS OD600 12 and rRNA inh HTS RFP 0.3.
Screening N/C(CN1CCCC1=O)=N\OC(=O)c1ccccc1Cl returned B2AR ag -1, LANA-H2B inh -0.6, Bfl-1 A1 inh 2.3, Beta cell apopt -5, Calb FLC 21, T cruzi inh 2 and ALR inh 2.
CNCc1nc2ccccc2[nH]1 was read as B2AR ag 4, rRNA inh HTS 11, LANA-H2B inh 0.3, Bfl-1 A1 inh 0.1, Beta cell apopt -9, Calb FLC 12, T cruzi inh -2, rRNA inh HTS OD600 11 and rRNA inh HTS RFP 0.7.
`O=C1c2ccccc2NC(c2cccc(O)c2)N1NS(=O)(=O)c1ccccc1` (configuration not stated) gave B2AR ag -5, rRNA inh HTS -2, LANA-H2B inh -3.7, Bfl-1 A1 inh -0.5, Calb FLC inconclusive, T cruzi inh -12, ALR inh 7, rRNA inh HTS OD600 -6 and rRNA inh HTS RFP 0.9.
Screening CCc1ccccc1NC(=O)N1CCC(NC(=O)C(Cc2ccc(OC)c(OC)c2)NC(C)=O)CC1 (configuration not stated) returned B2AR ag -2, LANA-H2B inh -0.8, Bfl-1 A1 inh 0.1, Beta cell apopt 1, Calb FLC -4, T cruzi inh -12 and ALR inh -6.
CC(C)C[C@H]1CN=C(N(C)C)N1CC1CCCCCC1 was read as B2AR ag -1, rRNA inh HTS -5, LANA-H2B inh 0.0, Bfl-1 A1 inh 0.7, Beta cell apopt 0, rRNA inh HTS OD600 -19 and rRNA inh HTS RFP 6.7.
For O=C(C1CCCN(C2CC(=O)N(c3ccc(Cl)cc3)C2=O)C1)N1CCCC1 (configuration not stated) the results were B2AR ag 2, rRNA inh HTS 19, LANA-H2B inh -7.1, Bfl-1 A1 inh 0.9, Beta cell apopt 1, Calb FLC 39, T cruzi inh -31, ALR inh -5, rRNA inh HTS OD600 10 and rRNA inh HTS RFP 4.6.
For CCOc1ccc(CN2CCN(C3CCC3)CC2CCO)cc1 (configuration not stated) the results were B2AR ag -5, rRNA inh HTS 23, LANA-H2B inh -3.5, Bfl-1 A1 inh 1.3, Beta cell apopt -5, Calb FLC 1, T cruzi inh -2, ALR inh -6, rRNA inh HTS OD600 7 and rRNA inh HTS RFP 2.8.
CCOC(=O)N1CCN(CC(=O)Nc2sccc2C#N)CC1 was read as B2AR ag 5, rRNA inh HTS 18, LANA-H2B inh 1.3, Bfl-1 A1 inh 0.0, Beta cell apopt -3, Calb FLC 0, T cruzi inh 3, ALR inh -2, rRNA inh HTS OD600 14 and rRNA inh HTS RFP 6.1.
`O=C(COC(=O)CNS(=O)(=O)c1ccc(Br)cc1Cl)NC1CCCC1` gave B2AR ag -2, rRNA inh HTS 7, Bfl-1 A1 inh -0.3, Beta cell apopt 3, Calb FLC 26, T cruzi inh -3, rRNA inh HTS OD600 7 and rRNA inh HTS RFP 2.2.
`CCCCOc1ccc(/C=C/C(=O)Nc2ccc([N+](=O)[O-])cc2C)cc1` gave B2AR ag 5, LANA-H2B inh 11, Bfl-1 A1 inh 0.3, Beta cell apopt -5, Calb FLC 3 and T cruzi inh 16.
`N#CC1=C(N)SC(N)=C(C#N)C1c1cccc(O)c1` gave B2AR ag 8, rRNA inh HTS 5, LANA-H2B inh -8.2, Bfl-1 A1 inh 0.1, Beta cell apopt -2, Calb FLC -14, T cruzi inh -3, ALR inh -1, rRNA inh HTS OD600 -16 and rRNA inh HTS RFP 6.0.
Screening Cc1oc(-c2ccccc2)cc1C(=O)NC(Cc1c[nH]c2ccccc12)C(=O)O (configuration not stated) returned B2AR ag 6, LANA-H2B inh 4.1, Bfl-1 A1 inh 0.2, Beta cell apopt inconclusive, Calb FLC 3, T cruzi inh -9 and ALR inh 8.
`Cc1ccc(-n2c(SCC(=O)N3CCOCC3)nnc2-c2cccnc2)cc1` gave B2AR ag -1, rRNA inh HTS 10, LANA-H2B inh 11, Bfl-1 A1 inh -1.0, Beta cell apopt -3, Calb FLC 3, T cruzi inh -8, ALR inh 6, rRNA inh HTS OD600 4 and rRNA inh HTS RFP -1.7.
Screening O=C(NCc1ccccc1)c1cccc(S(=O)(=O)NCc2ccccc2)c1 returned B2AR ag 6, rRNA inh HTS -19, LANA-H2B inh -3.4, Bfl-1 A1 inh -0.4, Beta cell apopt -1, Calb FLC -36, T cruzi inh 2, ALR inh -6, rRNA inh HTS OD600 -9 and rRNA inh HTS RFP -11.
`COc1cc(S(=O)(=O)N2CCN(C)CC2)ccc1Cl` gave B2AR ag 7, rRNA inh HTS 2, LANA-H2B inh -1.9, Bfl-1 A1 inh 0.0, Beta cell apopt -6, Calb FLC -8, T cruzi inh -20, ALR inh 20, rRNA inh HTS OD600 1 and rRNA inh HTS RFP -0.9.
O=C(NCCC1=CCCCC1)C1CCN(S(=O)(=O)c2cccc3cccnc23)CC1 was read as B2AR ag -13, rRNA inh HTS -1, LANA-H2B inh -3.0, Bfl-1 A1 inh 0.3, Beta cell apopt -4, Calb FLC -8, T cruzi inh -15, ALR inh -43, rRNA inh HTS OD600 3 and rRNA inh HTS RFP -1.8.
For CC(Oc1ccccc1)C(=O)Nc1ccc(S(=O)(=O)NCC2CCCO2)cc1 (configuration not stated) the results were B2AR ag 1, LANA-H2B inh -6.0, Bfl-1 A1 inh -0.5, Beta cell apopt -10, Calb FLC 20, T cruzi inh -12 and ALR inh -1.
Cc1cccc(-c2ncc(CN3CCN(CC(C)C)C(CCO)C3)cn2)c1 (configuration not stated) was read as B2AR ag -2, LANA-H2B inh 1.9, Bfl-1 A1 inh -0.6, Beta cell apopt 3, Calb FLC -24, T cruzi inh 27 and ALR inh -10.
Screening COc1ccc([C@@H]2[C@@H]3C(=O)N(C(C)(C)C)C(=O)[C@@H]3[C@]3(CC(C)C)C(=O)N(c4cccc(Br)c4)C(=O)N23)cc1 returned B2AR ag -2, rRNA inh HTS 9, LANA-H2B inh -3.5, Bfl-1 A1 inh 0.6, Beta cell apopt 3, Calb FLC 13, T cruzi inh 8, ALR inh -16, rRNA inh HTS OD600 -6 and rRNA inh HTS RFP -1.3.
`COc1ccc(/C=C/C(=O)N2CCN(C)CC2)cc1S(=O)(=O)N1CCCCC1` gave B2AR ag -1, rRNA inh HTS 0, LANA-H2B inh 2.6, Bfl-1 A1 inh 0.7, Beta cell apopt -6, Calb FLC -14, rRNA inh HTS OD600 -2 and rRNA inh HTS RFP -15.

From PubChem
